# Screening data as filed in PubChem.
# FPRL1 binder = binds the human formylpeptide receptor-like-1 FPRL1; FPRL1-expressing cells, fluorescent ligand binding inhibition, flow cytometry; AID 441; inhibition, %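 (tested at 6.7 µM)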; hit rate 0.3% among 24,000;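 further: 0% = buffer alone and 100% = receptor blocker peptide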
# Target sequence (P25090 whole entry, looked up): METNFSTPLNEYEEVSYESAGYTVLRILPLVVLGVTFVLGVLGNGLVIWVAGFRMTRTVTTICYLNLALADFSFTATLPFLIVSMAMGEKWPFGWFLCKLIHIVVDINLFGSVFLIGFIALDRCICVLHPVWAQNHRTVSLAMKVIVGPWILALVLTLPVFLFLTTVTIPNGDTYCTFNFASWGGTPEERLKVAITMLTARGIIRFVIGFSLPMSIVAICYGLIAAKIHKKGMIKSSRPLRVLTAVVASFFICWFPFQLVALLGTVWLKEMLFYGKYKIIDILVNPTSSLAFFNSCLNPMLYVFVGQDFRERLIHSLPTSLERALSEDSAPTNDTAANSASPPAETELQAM
# VCAM-1 down imaging = inhibitors of TNFa-induced VCAM-1 surface display, imaging, high-content imaging, pooled HUVEC, TNFa stimulus (AID 456); HUVEC TNFa-induced VCAM-1 surface expression, immunofluorescence imaging; numbers were filed only for top-ranked candidate wells; one-dose inhibition, % at 5 µM; IC50 in µM for titrated hits; hit rate 0.2% among 10,000;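 active means top tenth filtered wells with inhibition above zero that passed visual or statistical confirmation; inactive means the rest, including hits rejected on review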;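 further: 0% = stimulated vehicle wells and 100% = unstimulated cells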
# VCAM-1 down = suppression of endothelial VCAM-1 upregulation – cell-based, plate reader, pooled HUVEC, TNFa stimulus (AID 454). HUVEC TNFa-induced VCAM-1 surface immunofluorescence, plate reader; numbers were filed only for top-ranked candidate wells. inhibition, % at 5 µM. hit rate 0.2% among 10,000;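 active means compound among top-ranked inhibitors of TNF-induced VCAM-1 adhesion protein staining, with the hit upheld by image or statistical review; inactive means the rest, including hits rejected on review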;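 further: 0% = TNFa with vehicle and 100% = cells without TNFa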
# FPR ligand = binds the human formylpeptide receptor FPR; hit rate 0.74% among 24,000; FPR-expressing cells, fluorescent ligand binding, flow cytometry; inhibition, %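 (tested at 6.7 µM)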; P21462; AID 440;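 further: 0% = buffer wells and 100% = receptor blocker peptide wells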
# Target sequence (P21462 whole entry, looked up): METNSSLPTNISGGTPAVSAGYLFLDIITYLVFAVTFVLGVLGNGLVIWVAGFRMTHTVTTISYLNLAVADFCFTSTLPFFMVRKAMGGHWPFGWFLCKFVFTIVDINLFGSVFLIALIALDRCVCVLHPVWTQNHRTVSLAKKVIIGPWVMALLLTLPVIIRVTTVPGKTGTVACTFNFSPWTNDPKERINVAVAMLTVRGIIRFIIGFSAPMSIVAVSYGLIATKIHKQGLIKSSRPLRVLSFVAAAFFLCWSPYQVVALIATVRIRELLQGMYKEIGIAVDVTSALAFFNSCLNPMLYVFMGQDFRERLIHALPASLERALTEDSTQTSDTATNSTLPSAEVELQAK
# VCAM-1 up imaging = enhancers of VCAM-1 display on endothelial cells, imaging, high-content imaging, pooled HUVEC, TNFa stimulus (AID 457). Pooled HUVEC, TNFa-induced VCAM-1 immunofluorescence imaging; hits of this screen are not shown here. calls only. hit rate 0.2% among 10,000;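 active means a top-ranked rise in VCAM-1 staining upheld on image or statistical review; inactive means the rest, including candidates rejected on review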;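 further: compounds tested at 5 µM in the well; cells exposed to compound for 24 hours before fixing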
# Active calls of the source: *; i = inactive; ? = inconclusive; / = not tested or not shown.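 How the source made its calls, unless noted: active means mean above 30%; inconclusive means self-fluorescent; inactive means the rest.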 An excerpt; the hit share may differ from the screen's.
FPRL1 binder,VCAM-1 down imaging,VCAM-1 down,FPR ligand,SMILES,VCAM-1 up imaging
4,i,i,-1,COc1ccc(OC)c(C2/C(=C(\O)c3ccc4c(c3)OCCO4)C(=O)C(=O)N2CCCN(C)C)c1 (stereo unspecified),i
10,/,/,-7,O=C(CCN1CCN(c2ccc(F)cc2)CC1)Nc1ccc(F)cc1,/
11,/,/,3,CN(CC(=O)N1CCCCCC1)S(=O)(=O)c1cccc2cccnc12,/
2,/,/,0,CC1CCN(C(=O)CCCOc2cc(=O)n(C)c3ccccc23)CC1,/
0,i,i,0,O=C1CCc2cc(S(=O)(=O)N3CCC(C(=O)Nc4nccs4)CC3)ccc2N1,i
3,i,i,4,O=C1c2ccccc2C(=O)N1CCCn1nnc(-c2ccc(N3CCOCC3)cc2)n1,i
-1,/,/,-4,Cc1ccc(CCNC(=O)C2CCCN(S(=O)(=O)c3cccc4nsnc34)C2)cc1 (stereo unspecified),/
-4,i,i,-6,Nc1c(S(=O)(=O)c2cccs2)c2nc3ccccc3nc2n1CC1CCCO1 (stereo unspecified),i
1,i,i,-11,CCOc1cc(C(=O)N2CCN(c3ccccc3)CC2)cc(OCC)c1OCC,i
-3,/,/,1,CC1CCCC(NC(=O)CN(C)S(=O)(=O)c2cccc3cccnc23)C1C (stereo unspecified),/
0,/,/,-4,COCCCn1c(=N)c(C(N)=S)cc2c(=O)n3cccc(C)c3nc21,/
-7,/,/,-9,COc1ccccc1NC(=O)N1CCn2c(nc3ccccc32)C1,/
-3,/,/,4,CC(=O)N1CCc2cc(S(=O)(=O)CCC(=O)NCc3cccs3)ccc21,/
0,/,/,0,O=C(NCc1ccco1)c1noc2c1CCCC2,/
-3,i,i,51*,N[C@@H](Cc1ccc(O)c(I)c1)C(=O)O,i
-6,i,i,0,CCCCOCP(=O)(CCCC)COCCCC,i
-6,i,i,-5,CCOc1ccc2c(c1)c1nnc(SCC(=O)N3CCC(C)CC3)nc1n2C,i
3,/,/,4,C=CCSc1nnc(Cn2c(=O)sc3ccccc32)n1C,/
11,/,/,-4,CN(C)C(CNC(=O)NC1CCCCC1)c1cccnc1 (stereo unspecified),/
-3,/,/,0,CCOC(=O)N1CCN(C(=O)c2ccc(N3C(=O)c4ccccc4C3=O)cc2)CC1,/
20,/,/,6,CCOC(=O)N1CCC(Nc2c(NCCCN(CC)c3cccc(C)c3)c(=O)c2=O)CC1,/
-2,i,i,3,CCCOc1ccccc1NC(=O)c1ccc(N)cc1,i
-1,i,i,-1,O=C1CC(c2ccccc2)NC(=O)N1 (stereo unspecified),i
2,/,/,-4,CCOc1ccccc1Nc1cc(C)nc2nc(C)nn12,/
-4,/,/,-2,O=C(NC1CCCCC1)c1ccc2c(=O)n(CC3CCCO3)c(=O)[nH]c2c1 (stereo unspecified),/
5,i,i,-1,Cc1ccc(-c2nnc3ccc(SCC(=O)NCc4ccco4)nn23)cc1,i
-1,i,i,-6,CCOC(=O)c1sc(C)c2c(=O)n(CC)nnc12,i
-1,/,/,4,O=C(NCc1ccco1)c1ccc2c(=O)n(CCC3=CCCCC3)c(=O)[nH]c2c1,/
0,i,i,10,CC(C)(C)NC(=O)CN(C(=O)CS(=O)CC(=O)Nc1ccc(F)cc1)c1ccc(Cl)cc1 (stereo unspecified),i
0,i,i,1,COCCn1c(C23CC4CC(CC(C4)C2)C3)n[nH]c1=S,i
10,/,/,6,Cc1noc(C)c1S(=O)(=O)NCCCN1CCN(Cc2ccccc2)CC1,/
-5,/,/,-4,CSCc1nnc(NC(=O)c2ccc(S(=O)(=O)N(CC(C)C)CC(C)C)cc2)o1,/
11,/,/,7,CCn1cc(C(=O)NC2CCCCC2)c(=O)c2cc(S(=O)(=O)N(C)C)ccc21,/
0,/,/,10,O=C(NCCN1CCCC1)c1ccc2c(=O)n(CCc3ccccc3)c(=O)[nH]c2c1,/
1,i,i,2,O=c1c2ccccc2nc2n1CCN2,i
8,/,/,-3,Cc1cc(C)n2c(SCC(=O)Nc3ccccc3)nnc2n1,/
-8,/,/,7,Cn1c(C(=O)O)c(CC(=O)Nc2ccc(F)cc2F)c2ccccc21,/
2,i,i,-4,CCNC(=O)C1CC(=O)N(Cc2ccc3c(c2)OCO3)C(=Nc2ccc(F)cc2)S1 (stereo unspecified),i
-1,i,i,0,CC(=O)NC(C)C(=O)OCc1ccc(Cl)cc1Cl (stereo unspecified),i
3,i,i,-2,O=C1CCCc2c1nn(-c1ccccc1)[n+]2[O-],i
0,/,/,0,COc1ccccc1-n1nc(C(=O)NCc2ccco2)c2ccccc2c1=O,/
-5,/,/,-7,CCOc1ccc(/C(O)=C2/C(=O)C(=O)N(CCN(CC)CC)C2c2ccco2)cc1 (stereo unspecified),/
4,/,/,2,CCCCN1C(=O)C(O)(CC(=O)c2ccccc2OC)c2ccccc21 (stereo unspecified),/
2,/,/,4,Cc1ccccc1NC(=O)CN1C(=O)COc2ccc(Cl)cc21,/
-3,i,i,?,CCN(CC)C(=O)c1sc2nc(-c3cccs3)cc(-c3cccs3)c2c1N,i
-1,i,i,4,CC(C)OC(=O)c1cc(=O)[nH]c2ccccc12,i
3,i,i,-5,CCc1nnc(NC(=O)c2cc3c(s2)CCCCC3)s1,i
3,i,i,-2,COc1cccc(CC(=O)Nn2c(C)nc3ccccc3c2=O)c1,i
4,i,i,-1,Cc1onc(-c2ccccc2Cl)c1C(=O)Nc1cccnc1,i
-7,/,/,0,O=C(NCC1CCCO1)c1csc2c1CCCC2 (stereo unspecified),/
-2,/,/,0,O=C(NCc1cccs1)c1cccnc1C(=O)O,/
1,i,i,6,O=C(CCNC(=O)Cn1ccc2ccccc2c1=O)NCCN1CCN(c2ccccc2F)CC1,i
5,/,/,-6,O=C(Nc1c(C(=O)N2CCOCC2)cnn1-c1ccccc1)c1ccco1,/
-2,i,i,4,COc1ccc(-c2nc(CS(=O)CC(=O)NCc3ccccn3)c(C)o2)cc1 (stereo unspecified),i
8,/,/,-7,CCOC(=O)C1CCCN(c2c(NCCCN(CC)c3cccc(C)c3)c(=O)c2=O)C1 (stereo unspecified),/
-2,/,/,0,CCOc1cc(/C=N/n2cnnc2)c(Br)cc1O,/
6,i,i,-1,O=C(COc1ccc2c(c1)OCO2)NC12CC3CC(CC(C3)C1)C2,i
9,/,/,0,COC(=O)NCCOC(=O)N(O)c1ccc(Br)cc1,/
0,/,/,4,CCC(Oc1ccccc1)C(=O)Nc1cc(C)on1 (stereo unspecified),/
-1,i,i,2,CC(=O)n1nc(-c2ccco2)nc1SCc1ccccc1,i

# 17 consecutive compounds out of the list so far, for reference:
FPRL1 binder,VCAM-1 down imaging,VCAM-1 down,FPR ligand,SMILES,VCAM-1 up imaging
0,/,/,0,COc1ccccc1-n1nc(C(=O)NCc2ccco2)c2ccccc2c1=O,/
-5,/,/,-7,CCOc1ccc(/C(O)=C2/C(=O)C(=O)N(CCN(CC)CC)C2c2ccco2)cc1 (stereo unspecified),/
4,/,/,2,CCCCN1C(=O)C(O)(CC(=O)c2ccccc2OC)c2ccccc21 (stereo unspecified),/
2,/,/,4,Cc1ccccc1NC(=O)CN1C(=O)COc2ccc(Cl)cc21,/
-3,i,i,?,CCN(CC)C(=O)c1sc2nc(-c3cccs3)cc(-c3cccs3)c2c1N,i
-1,i,i,4,CC(C)OC(=O)c1cc(=O)[nH]c2ccccc12,i
3,i,i,-5,CCc1nnc(NC(=O)c2cc3c(s2)CCCCC3)s1,i
3,i,i,-2,COc1cccc(CC(=O)Nn2c(C)nc3ccccc3c2=O)c1,i
4,i,i,-1,Cc1onc(-c2ccccc2Cl)c1C(=O)Nc1cccnc1,i
-7,/,/,0,O=C(NCC1CCCO1)c1csc2c1CCCC2 (stereo unspecified),/
-2,/,/,0,O=C(NCc1cccs1)c1cccnc1C(=O)O,/
1,i,i,6,O=C(CCNC(=O)Cn1ccc2ccccc2c1=O)NCCN1CCN(c2ccccc2F)CC1,i
5,/,/,-6,O=C(Nc1c(C(=O)N2CCOCC2)cnn1-c1ccccc1)c1ccco1,/
-2,i,i,4,COc1ccc(-c2nc(CS(=O)CC(=O)NCc3ccccn3)c(C)o2)cc1 (stereo unspecified),i
8,/,/,-7,CCOC(=O)C1CCCN(c2c(NCCCN(CC)c3cccc(C)c3)c(=O)c2=O)C1 (stereo unspecified),/
-2,/,/,0,CCOc1cc(/C=N/n2cnnc2)c(Br)cc1O,/
6,i,i,-1,O=C(COc1ccc2c(c1)OCO2)NC12CC3CC(CC(C3)C1)C2,i

# Following part.
FPRL1 binder,VCAM-1 down imaging,VCAM-1 down,FPR ligand,SMILES,VCAM-1 up imaging
3,i,i,-2,Cn1c2c(c(=O)[nH]c1=O)C(NC(=O)c1ccco1)(C(F)(F)F)C(=O)N2 (stereo unspecified),i
0,/,/,4,O=C(CN1C(=O)COc2ccccc21)Nc1ccc(F)cc1,/
2,i,i,0,CCCNC(=O)c1ccccc1NC(=O)CN(c1ccccc1OCC)S(C)(=O)=O,i
5,/,/,4,CCOC(=O)N1CCC(NC(=O)c2cn(-c3ccc(OC)cc3)c(=O)c3ccccc23)CC1,/
-1,i,i,1,CCOC(=O)c1[nH]c(C)c(C(=O)Nc2ccc(Cl)cc2)c1C,i
0,i,i,-2,CCN(Cc1ccccc1)C(c1ccncc1)c1nnnn1C(C)(C)C (stereo unspecified),i
-10,i,i,-2,Cc1ccc(-c2noc(CCC(=O)N3CCN(c4cccc(C(F)(F)F)c4)CC3)n2)cc1,i
-12,/,/,-2,Cc1ccc(Cl)cc1N1CCN(C(=O)C2CCN(c3nnc(-n4cccc4)s3)CC2)CC1,/
-1,/,/,4,CCN(CC)c1ccc(NC(=O)CN2C(=O)CSc3ncccc32)c(C)c1,/
6,/,/,0,c1ccc(CNc2ncnc3ccccc23)cc1,/
1,/,/,9,CCOC(=O)c1cc2c(=O)n(C)c3ccccc3c2s1,/
0,i,i,2,O=C(O)C1C2C=CC(O2)C1C(=O)NCc1ccc(Cl)cc1 (stereo unspecified),i
15,/,/,8,Cc1cccc(CS(=O)(=O)Cc2ccc(C(=O)NCc3ccco3)o2)c1,/
-3,/,/,-4,COc1ccc(/C=N\n2nnc3ccccc32)cc1,/
4,/,/,-4,O=C(NCC1CCCO1)C1CCN(S(=O)(=O)N2CCCC2)CC1 (stereo unspecified),/
-3,i,i,3,Cc1ccc(C)c(N2CCN(CCCNC(=O)Cn3cc4c(n3)CCC(C)C4)CC2)c1 (stereo unspecified),i
-6,/,/,3,CCCCN(C)CCCNC(=O)CCn1nc(-c2ccccc2)ccc1=O,/
7,/,/,-5,O=C(O)CCCCNS(=O)(=O)c1ccc(Cl)c(C(F)(F)F)c1,/
0,i,i,-9,COc1ccc(NC(=O)c2cnc3n(c2=O)CCS3)cc1OC,i
6,i,i,3,Cn1c(Cc2csc(N)n2)nnc1SCC(=O)NCc1ccccc1,i
-6,i,i,2,CCOC(=O)c1c(-c2ccc(C)o2)csc1NC(=O)COC(=O)c1cccs1,i
-3,/,/,-9,C=CCOc1ccc(/C(O)=C2\C(=O)C(=O)N(CCCOC)C2c2ccncc2)cc1 (stereo unspecified),/
-12,/,/,0,COCCCN1C(=O)c2ccccc2C1C(=O)NC1CCCCCC1 (stereo unspecified),/
-1,i,i,-7,CC(C)(C)C(=O)N=C1SC2CS(=O)(=O)CC2N1c1ccc2c(c1)OCO2 (stereo unspecified),i
-3,/,/,-1,COc1ccc(NC(=O)c2cc(-c3cccs3)on2)cc1OC,/
-3,/,/,-26,O=C(O)C1CCCCC1C(=O)Nc1cccc(C(=O)N2CCCCC2)c1 (stereo unspecified),/
1,/,/,5,COc1ccc(Cn2c(=O)[nH]c3cc(C(=O)NCCCN4CCCCC4)ccc3c2=O)cc1,/
0,/,/,2,CC12CCC(C(=O)O)(C/C1=N\O)C2(C)C (stereo unspecified),/
3,/,/,5,CCOc1ccc(CCNC(=O)C2CCN(c3nn4c(=O)cc(C)nc4s3)CC2)cc1OCC,/
2,/,/,11,CC(NC(=O)c1cccc(N2CCCC2=O)c1)c1ccc2c(c1)OCCO2 (stereo unspecified),/
-7,/,/,-1,O=C(NCc1ccco1)C1CCN(c2nnc(-n3cccc3)s2)CC1,/
-1,/,/,0,CCS(=O)(=O)n1nc(-c2ccc(Cl)cc2)nc1N,/
0,/,/,1,Cn1c(=O)c2cc(S(=O)(=O)Nc3cccc(F)c3)ccc2n(C)c1=O,/
3,/,/,-5,CCOc1ccc(C2N(c3cc(Cl)ccc3OC)C(=O)C3CCCN32)cc1OC (stereo unspecified),/
